# From PubChem BioAssay
# KCNQ2 enhance: potentiators of rat KCNQ2 potassium channel; Potassium voltage-gated channel subfamily KQT member 2 (Rattus norvegicus), O88943; CHO-K1 KCNQ2, FluxOR thallium flux fluorescence; stronger effect = higher value; B-score at 10 µM; actives 0.54% (n = 310,000);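 active = fluorescence ratio B-score at least 3 SD of library B-scores, with initial fluorescence B-score within 3 SD, cut at about 5.3 in these data; same plate scores as AID 2156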;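 note: B-score of peak minus minimum over baseline fluorescence ratio after K+ and Tl+ stimulus; positive B-score means potentiation of KCNQ2 with more thallium influx and brighter signal; only the inactives scoring about 0 or higher are listed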
# Target sequence (O88943 whole entry, looked up): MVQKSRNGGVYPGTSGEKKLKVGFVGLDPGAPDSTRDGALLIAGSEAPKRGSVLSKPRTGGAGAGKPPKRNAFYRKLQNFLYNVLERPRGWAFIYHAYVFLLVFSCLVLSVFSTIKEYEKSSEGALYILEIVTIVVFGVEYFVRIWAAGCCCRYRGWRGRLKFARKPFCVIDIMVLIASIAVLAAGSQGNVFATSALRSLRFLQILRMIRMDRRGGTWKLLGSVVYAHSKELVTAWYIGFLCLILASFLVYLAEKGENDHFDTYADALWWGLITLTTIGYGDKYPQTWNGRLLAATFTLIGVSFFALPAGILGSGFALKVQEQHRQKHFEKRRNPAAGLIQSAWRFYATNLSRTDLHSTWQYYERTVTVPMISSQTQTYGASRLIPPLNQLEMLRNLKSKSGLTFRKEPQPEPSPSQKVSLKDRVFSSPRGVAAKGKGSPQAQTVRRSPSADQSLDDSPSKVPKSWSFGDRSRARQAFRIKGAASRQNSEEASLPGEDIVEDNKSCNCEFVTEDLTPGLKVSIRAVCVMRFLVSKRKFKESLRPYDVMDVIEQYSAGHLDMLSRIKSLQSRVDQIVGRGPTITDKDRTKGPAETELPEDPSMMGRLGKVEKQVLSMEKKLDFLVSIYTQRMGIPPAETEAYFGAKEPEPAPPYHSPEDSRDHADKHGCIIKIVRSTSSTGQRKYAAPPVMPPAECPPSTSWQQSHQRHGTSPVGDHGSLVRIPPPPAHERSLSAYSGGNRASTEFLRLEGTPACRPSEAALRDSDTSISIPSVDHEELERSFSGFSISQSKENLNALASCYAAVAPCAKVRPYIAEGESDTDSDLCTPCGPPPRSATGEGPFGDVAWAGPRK
# KCNQ2 enhance baseline: second read-out of KCNQ2 enhance, no call of its own (marks repeat the call); B-score; compound at 10 µM; measured here: initial fluorescence intensity artifact check;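 brightness before thallium and not channel activity; 0 = typical well and far values either way flag optical interference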
# An asterisk follows results filed as active.
SMILES,KCNQ2 enhance,KCNQ2 enhance baseline
CCOC(=O)N1CCC(NC(=O)c2ccc3nc(N4CCOCC4)sc3c2)CC1,0.96,-0.38
CCS(=O)(=O)c1nc(S(=O)(=O)c2ccc(C)cc2)c(N2CCC(C)CC2)s1,0.63,-0.79
CCN(CC)c1nc(-c2cccc(OC)c2O)nc2ccccc12,0.04,0.1
COc1cc(Cl)c(S(=O)(=O)n2cnc(C)c2)cc1Cl,0.07,2.1
CCCC(=O)N1CCN(S(=O)(=O)c2cc(Cl)ccc2OC)CC1,0.02,-0.22
CN1CCN(S(=O)(=O)c2cc([N+](=O)[O-])ccc2Cl)CC1,0.27,0.98
Cn1c(SCc2cccc(Br)c2)nnc1-c1ccncc1,0.35,-1.3
CCOc1cc(C(=S)N2CCOCC2)ccc1OS(=O)(=O)c1ccccc1[N+](=O)[O-],1,-0.03
Cc1cccc(NC(=O)CSc2nc(C)c(Cc3ccccc3)c(=O)[nH]2)c1,1.5,-2.5
CC1CCCCC1NC(=O)CSc1nncs1 (stereo unspecified),0.25,0.48
CCOC(=O)c1oc2ccc(Br)cc2c1CSc1nnc(C)s1,0.01,-3
CCC(=O)NC(=S)Nc1ccc2oc(-c3ccc(OC)cc3)nc2c1,0.63,0.17
Cc1cc(C)n(-c2nc(Nc3ccccc3C)nc(-n3nc(C)cc3C)n2)n1,2.2,-1.5
O=C(O)c1ccc(OCC2CCCO2)cc1 (stereo unspecified),0.45,0.26
COC(=O)Nc1ccc(Cc2ccncc2)cc1,1.2,-1.2
C/C(=N\NC(=O)c1cc(C2CC2)nc2ccccc12)c1ccc(O)cc1O,1.7,-0.55
O=C(O)c1ccc(CN2CCCCC2)o1,0.71,-1.9
Cc1cc(C)nc(SCC(=O)Oc2ccc3oc(=O)cc(C)c3c2)n1,0.99,-0.01
O=C(CSc1nnc(-c2cccnc2)n1-c1ccc(F)cc1)NCc1ccc2c(c1)OCO2,0.33,0.95
COC(=O)c1cccc(NC(=O)c2cnoc2C)c1,2,-0.22
COc1ccc(Cn2ccnc2SCC(=O)Nc2ccccc2)cc1,1.4,-1.8
Cn1nc(C(=O)NCc2cccc(Cl)c2)c2c1-c1ccccc1S(=O)(=O)C2,0.75,-0.49
Cc1cccc(NC(=O)C2CC(=O)N(c3ccccc3)C2)c1C (stereo unspecified),1.2,0.11
Cc1cc(C)c2c(CN3CCN(Cc4ccc5c(c4)OCO5)CC3)cc(=O)oc2c1C,0.33,-0.58

# Some of these compounds in order of formula weight, falling.
SMILES,KCNQ2 enhance,KCNQ2 enhance baseline
O=C(CSc1nnc(-c2cccnc2)n1-c1ccc(F)cc1)NCc1ccc2c(c1)OCO2,0.33,0.95
Cc1cc(C)c2c(CN3CCN(Cc4ccc5c(c4)OCO5)CC3)cc(=O)oc2c1C,0.33,-0.58
Cc1cccc(NC(=O)C2CC(=O)N(c3ccccc3)C2)c1C (stereo unspecified),1.2,0.11

# (listing goes on)
SMILES,KCNQ2 enhance,KCNQ2 enhance baseline
O=C(CCN1C(=O)c2ccc(Br)cc2C1=O)NC1CCCCC1,0.21,1.2
O=C(COC(=O)c1ccc([N+](=O)[O-])s1)Nc1ccc(Cl)cn1,0.65,-0.45
O=C(c1cc2cc(Br)ccc2oc1=O)N1CCN(c2ccccn2)CC1,0.12,-0.22
COC(=O)[C@@H]1C[C@@]2(O)[C@@H](O)[C@@H](O)[C@@H](O)C[C@H]2N1Cc1ccc(-c2ccccc2)cc1,0.02,0.88
Cc1ccc(C(=O)C(C)OC(=O)CCN2C(=O)C3C4C=CC(C5CC45)C3C2=O)cc1 (stereo unspecified),0.09,0.84
NS(=O)(=O)c1ccc(N=Nc2c(O)c(C(=O)O)cc3ccccc23)cc1,1.1,0.03
COc1ccccc1Nc1nnc(SCC(=O)Nc2cc(C)on2)s1,0.22,-0.01
Cc1nc(-c2ccc(S(=O)(=O)Nc3cccc(S(N)(=O)=O)c3)s2)cs1,0.01,1.2
O=C(NC1CC1)C1CCN(C(=O)c2ccccc2Cl)CC1,0.47,2.3
O=[N+]([O-])c1ccc2c(c1)ncn2-c1ccccc1,0.59,-0.09
C=CCN1C(=O)CSc2ccc(C(=O)NC3CCCCC3)cc21,1.3,-0.28
CCC(C(=O)Nc1cccnc1Cl)c1ccccc1 (stereo unspecified),0.2,0.75
Cc1cnc(C(=O)OCC(=O)N2c3ccccc3NC(=O)C2(C)C)cn1,0.53,0
CSCC[C@H](NC(=O)Cc1c(C)c2c(cc(C)c3c(C)coc32)oc1=O)C(=O)O,0.01,0.37
CCc1cc(C(=O)NNC(=S)Nc2ccccc2C)cs1,0.4,0.53
Cn1nc(C(F)(F)F)c(C(=O)Nc2ccc(F)cc2)c1Cl,0.36,0.26
O=C(c1ccc(-c2ccccc2)cc1)C1CCCN(C(=O)Cn2cncn2)C1 (stereo unspecified),0.01,-1.4
CCC(C(=O)NCCN1CCOCC1)n1c2ccccc2c2nc(=O)cc(C)n21 (stereo unspecified),0.23,1.4
COc1cc(/C=C2\SC(=S)N(CCC(=O)Nc3ccccc3O)C2=O)cc(OC)c1OC,1.5,-1.4
OCCNc1nc(Cl)nc(NCc2ccco2)n1,0.97,-2.4
O=C(COc1cc2oc(=O)c3c(c2cc1Cl)CCC3)N1C[C@H]2C[C@@H](C1)c1cccc(=O)n1C2,0.11,-1.3
COc1cc(C(=O)OCC(=O)Nc2ccc(C(C)=O)cc2)ccc1OCC(=O)N1CCOCC1,1.5,0.86
Cc1cc(/C=N/NC(=O)c2cccc(N(C)C)c2)c(C)n1-c1cc(C(=O)O)cc(C(=O)O)c1,0.01,0.88
O=[N+]([O-])c1cccc2cn[nH]c12,0.65,0.26
Cc1cc2c(cc1C)CSC(c1ccccc1O)SC2,1.2,-1.4
COc1cc(Br)c(/C=C/c2ccc3cccc(O)c3n2)cc1OC,0.09,-1.8
CCCCc1ccc(NC(=O)c2cnccn2)cc1,0.32,0.48
COc1ccc(CN2CCNC(=O)C2CC(=O)N(C)Cc2ccon2)cc1OC (stereo unspecified),0.95,-0.35
O=C(O)c1ccc(S(=O)(=O)NCC2CCCCC2)cc1,0.47,2.1
C=CCn1ncc(OC)c(Cl)c1=O,2.1,0.24
O=C(OCCN1C(=O)c2ccccc2C1=O)c1ccccc1,0.01,-0.44
COc1ccc(NC(=O)CCC(=O)Nc2ccc3nc(N4CCOCC4)cc(C)c3c2)c(OC)c1,0.24,2.9
Cc1ccc2c(CC(=O)NNC(=O)c3ccccc3)coc2c1,1.6,1.8
Cc1nn(CC(=O)N2CCN(C)CC2)c(=O)c2c1sc1ccccc12,0.26,0.03
CC(=O)Nc1ccc(S(=O)(=O)Nc2ncccn2)cc1,0.39,-0.97
Cc1ccc(NS(=O)(=O)c2cc(C(=O)NCc3ccncc3)ccc2C)cc1,1.7,-1.2
COC(=O)CN1C(=O)[C@H]2[C@@H](c3ccc(C)o3)N3C(=O)CN(Cc4ccccn4)C(=O)[C@@]3(C)[C@H]2C1=O,1.8,-2
CN(CCO)c1nc(N)c2c(N)nc3c(c2c1C#N)CC(=O)N3Cc1cccs1,0.04,0.44
CCN(CC)C(=O)C1CCCN(C/C=C/c2ccccc2)C1 (stereo unspecified),0.93,1.9
COc1ccc(C(=O)NC2CC2)cc1OC1CCN(Cc2cc(C)cc(C)c2)CC1,0.47,0.08
COCCN1CC(O)=C(c2nc3ccccc3c(=O)[nH]2)C1=N,1.6,-0.06
CC(=O)c1ccc(OCCn2cnc3ccccc32)cc1,0.66,0.49
CCN(CC(=O)Nc1cc(C)nn1-c1nc(C)cc(C)n1)Cc1ccccc1,1.2,-2.7
COC(=O)C1=CN(c2ccc(F)cc2)C=C(C(=O)OC)C1c1ccc(O)cc1,0.06,0.18
CN1CCN(NS(=O)(=O)c2ccc(Cl)cc2)CC1,0.06,1.3
CCOc1c([N+](=O)[O-])cc2c(C)c(C(=O)N3CCN(C)CC3)oc2c1OCC,0.16,0.44
CC(C)(C)OC(=O)N/N=C/c1cc(N=Nc2ccccc2)ccc1O,0.21,0.05
CCc1ccc2nc(Nc3nc(COC)cc(=O)[nH]3)nc(C)c2c1,4.3,-1.1

# Quoted from the listing.
# Value for COC(=O)CN1C(=O)[C@H]2[C@@H](c3ccc(C)o3)N3C(=O)CN(Cc4ccccn4)C(=O)[C@@]3(C)[C@H]2C1=O in KCNQ2 enhance baseline: -2
# Value for CCN(CC)C(=O)C1CCCN(C/C=C/c2ccccc2)C1 (stereo unspecified) in KCNQ2 enhance baseline: 1.9
# Value for CC(=O)c1ccc(OCCn2cnc3ccccc32)cc1 in KCNQ2 enhance: 0.66
# Value for COc1ccc(C(=O)NC2CC2)cc1OC1CCN(Cc2cc(C)cc(C)c2)CC1 in KCNQ2 enhance: 0.47

# Further results:
SMILES,KCNQ2 enhance,KCNQ2 enhance baseline
CCCc1cc(C(=O)N(C)CC(=O)Nc2ccc(OCC)c(OCC)c2)sc1C,0.83,-0.29
CCCc1c(O)c2ccccc2n(-c2ccccc2)c1=O,0.71,-0.04
CN1CCc2c(sc3c2c(=O)n(-c2ccccc2)c2nnc(SCc4ccc(Cl)cc4)n32)C1,0.17,-0.48
O=C(O)c1cc(S(=O)(=O)N(Cc2ccccc2)c2ccccc2)ccc1Cl,0.74,0.43
CCOC(=O)C1=C(c2ccccc2)O/C(=C(/C#N)C(F)(F)F)S1,0.61,1.2
COc1ccccc1NC(=O)CSc1nnc(CNC(=O)COc2ccc(Cl)cc2)o1,0.9,-1.1
O=c1cc(CN2CCN(Cc3ccccc3)CC2)c2cc(O)ccc2o1,0.59,2.5
Cc1ccccc1N(CC(=O)NCC1CCCO1)C(=O)CCC(=O)Nc1nccs1 (stereo unspecified),1.1,1
CNc1nc(N)c([N+](=O)[O-])c(NC2CCCCC2)n1,0.36,1.8
COc1cccc(CNc2ccc([N+](=O)[O-])c(NCC(=O)O)n2)c1,0.36,0.35
Cc1ccc(NC(=O)C2(c3ccccc3)CC2(Cl)Cl)cc1C (stereo unspecified),1.2,-0.99
Fc1cccc(NCCc2c[nH]c3ccccc23)n1,1.1,-1.1
C=CC1=C2C=C(C3CC3)N(CCCN(CC)CC)C=C2C(=O)C(C)(OC(=O)c2ccco2)C1=O (stereo unspecified),0.79,0.02
NC(=NC1CCCCC1)c1ccc(Cl)cc1,0.21,0.04
COC(=O)Cn1c(=NC(=O)c2ccc(Cl)s2)sc2cc(C)ccc21,0.31,-4
CCOC(=O)c1cc(NC(=O)Nc2ccc(Br)cc2)c(C)nc1C,0.41,-0.03
CC(=O)c1ccc(NC(=S)N(CCCN(C)C)Cc2ccccc2)cc1,0.61,-0.66
COC(=O)c1ccccc1NC(=O)NCc1c(C)nn(C)c1C,0.09,0.8
CC(C(=O)NC1CCCCC1)N1C(=O)c2cccc3cccc1c23 (stereo unspecified),0.37,-0.31
CCCC(=O)Nc1nnc(-c2ccc(Cl)s2)o1,0.97,0.02
CCOC(=O)c1cc(-c2ccccc2)n(CC(=O)Nc2ccc(OC)cc2)c1C,2.5,4.4
COc1ccc(C(=O)Oc2cc(/C=N/NS(=O)(=O)c3ccc(C)cc3)ccc2OC)cc1,0.18,0
CCC(C)c1ccccc1NC(=O)c1[nH]c(C)c(C(C)=O)c1C (stereo unspecified),0.04,-1.1
COc1ccc(-c2c3c(nc4sc(C(=O)Nc5cc(C)on5)c(N)c24)CCC3)cc1,1.4,-2.6
COc1ccccc1CNC(=O)C(C)NS(=O)(=O)c1ccc(C)cc1 (stereo unspecified),0.03,-1
Cc1ccc(C(=O)O)cc1NC(=O)CCc1ccccc1,0.68,-1
CC/C(C)=C1\SC(N2CCN(C(C)=O)CC2)=NC1=O,0.51,0.07
COCCCn1c(SCC(=O)Nc2nnc(C)s2)nnc1-c1ccoc1C,0.37,0.23
CCN(CC)c1nc(N)c(C#N)c(CC#N)c1C#N,1.6,0.01
COc1cccc(OC)c1OCCCN1CCOCC1,0.65,-0.1
O=C(CSc1nc2ccccc2o1)N/N=C/c1ccc(C(=O)O)cc1,0.17,-0.32
COc1ccc(-c2nc3ccccc3c(=O)n2N)cc1,0.03,-0.03
COc1ccccc1N1C(=O)CC(N(O)c2ccccc2)C1=O (stereo unspecified),1.1,1.2
O=C1CC(N2CCSCC2)C(=O)N1c1cccc(Cl)c1 (stereo unspecified),0.97,-0.83
O=C1OC(c2ccc(Cl)cc2)/C(=C(/O)c2ccccc2)C1=O (stereo unspecified),0.41,0.24
CCN(CC)S(=O)(=O)c1ccc(N2CCOCC2)c(NC(=O)c2cc(=O)[nH]c3ccccc23)c1,1.1,-0.31
C(=N\Nc1nn2cnnc2c2ccccc12)/c1ccco1,0.84,0.01
Nc1nc(NCCOCCO)nc(NC2CCCCC2)c1[N+](=O)[O-],1.3,-0.34
O=C(CSc1nnc2n(C3CCCC3)c(=O)c3ccccc3n12)N1CCCCCC1,3.7,-0.67
COc1ccc(/C(O)=C2/C(=O)C(=O)N(c3ncccn3)C2c2ccc(OC)c(OC)c2)cc1 (stereo unspecified),0.53,-0.09
COC(=O)c1n[nH]c2ccccc12,1.2,1.2
CCN(CC(=O)Nc1sc2c(c1C#N)CCC(C)C2)CC(=O)NC1CCS(=O)(=O)C1 (stereo unspecified),0.3,0.19
CCCNC(=S)N1CCC(C(=O)c2ccc3c(c2)OCCO3)CC1,0.01,1.6
COc1cc(OC)nc(NC(=O)CSc2nc3ccccc3o2)n1,1,-0.95
CC(=O)N1c2c(cc(Br)cc2S(=O)(=O)Nc2c(C)n(C)n(-c3ccccc3)c2=O)CC1C (stereo unspecified),0.09,0.16

# Compound profiles (already shown). Screens in order: KCNQ2 enhance, KCNQ2 enhance baseline
# Nc1nc(NCCOCCO)nc(NC2CCCCC2)c1[N+](=O)[O-] is listed with 1.3, -0.34
# COc1ccc(/C(O)=C2/C(=O)C(=O)N(c3ncccn3)C2c2ccc(OC)c(OC)c2)cc1 (stereo unspecified) is listed with 0.53, -0.09
# O=C(CSc1nnc2n(C3CCCC3)c(=O)c3ccccc3n12)N1CCCCCC1 is listed with 3.7, -0.67
# CCN(CC(=O)Nc1sc2c(c1C#N)CCC(C)C2)CC(=O)NC1CCS(=O)(=O)C1 (stereo unspecified) is listed with 0.3, 0.19

# An excerpt; count on the stated rates, not on these rows.
